# Screens: PubChem, National Center for Advancing Translational Sciences (NCATS)
# VDR inh: blocks the human vitamin D receptor. VDR-SRC2-3 peptide fluorescence polarization, 2 h. Potency, µM, for the others: max response, negative = inhibition, most hits filed as inhibitors. actives 0.93% (n = 400,000); active = well fitted inhibition curve with a large enough effect; inconclusive = small, poorly fitted or top-dose-only effect, or another doubt; inactive = no such curve, though single readings can be large or run the other way; also: series mostly up to about 120 µM
# Target sequence (P11473 whole entry, looked up): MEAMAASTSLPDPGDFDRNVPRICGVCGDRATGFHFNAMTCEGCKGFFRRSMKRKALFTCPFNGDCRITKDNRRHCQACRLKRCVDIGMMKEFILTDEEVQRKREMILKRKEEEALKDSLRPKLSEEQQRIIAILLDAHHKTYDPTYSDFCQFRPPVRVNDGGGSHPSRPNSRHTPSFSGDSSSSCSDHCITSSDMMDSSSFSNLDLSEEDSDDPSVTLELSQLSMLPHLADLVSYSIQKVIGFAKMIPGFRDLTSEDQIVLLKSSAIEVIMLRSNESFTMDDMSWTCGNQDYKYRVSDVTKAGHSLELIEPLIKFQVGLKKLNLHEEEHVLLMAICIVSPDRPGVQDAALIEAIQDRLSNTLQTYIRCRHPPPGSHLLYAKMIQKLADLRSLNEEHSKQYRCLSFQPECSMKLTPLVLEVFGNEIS
#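 After 23 nl compound addition and a short centrifugation, plates sat for 2 hours at ambient temperature; polarization of fluorescence then indicated loss of VDR binding to peptide SRC2-3.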
# * hit, by the source's call; ? = inconclusive; [ ] = remark or other dose. % is scaled to controls: 0 for no effect and ±100 for the full control effect; potency is read from the fitted curve at half-maximal effect. Some of the compounds tested; rates above refer to the full screens.
SMILES,VDR inh
Cc1ccc(-c2cc(C(=O)N3CCN(S(=O)(=O)c4ccc(Br)s4)CC3)[nH]n2)cc1C,-1.7%
O=C1C2C3C=CC(C3)C2C(=O)N1CNc1ccccc1 (centres undefined),11.3%
CC1CC=CC2C1C(=O)N(Cc1ccccc1)C2c1ccc(-c2cc3ccccc3s2)cc1F (centres undefined),-23.1%
CC1CCCCN1C(=O)CSc1nnc(-c2ccccc2O)o1 (centres undefined),-14.1%
N/C(=N\OC(=O)CCCOc1ccc(Cl)cc1Cl)c1ccccn1,-0.1%
COc1cccc(OC)c1C(=O)NC(=S)Nc1ccc2c(c1)Cc1ccccc1-2,-3.5%
CC(C)CCOP(=O)(c1ccc(N(C)C)cc1)C(Nc1ccccc1)c1ccc(N(C)C)cc1 (centres undefined),-24.1%
CCOC(=O)N1CCC(=NNC(=O)Cn2ccc(C(F)(F)F)n2)CC1,5.0%
OCC1(Cc2ccccc2)CCCN(Cc2cn[nH]c2-c2ccccc2)C1 (centres undefined),23.1%
COc1ccccc1CNC(=O)COC(=O)c1ccc2c(=O)n3c(nc2c1)CCCCC3,-4.6%
O=C(CN1CCCCC1)Nc1ccc(S(=O)(=O)N2CCOCC2)cc1,-2.6%
COc1cccc2c(=O)c(C/C=C(/C)Cl)c(C)[nH]c12,5.8%
Cc1ccc(C(=O)Nc2nccs2)cc1,6.7%
c1coc(CN2CN=C(Nc3nc4ccccc4s3)NC2)c1,1.0%
CN1c2ccc([N+](=O)[O-])cc2C(C)(C)C12C=Cc1cc(C(=O)O)ccc1O2 (centres undefined),?
COC(=O)C1=C(Nc2ccc(C)cc2)C=C(C)C(C(=O)OC)C1c1cccc(OC)c1 (centres undefined),16.2%
COc1cnc(-c2ccccn2)nc1N(C)c1ccccc1,-17.6%
Cc1c(C(=O)OCC(=O)N(C)c2ccccc2)cccc1[N+](=O)[O-],-21.3%
CC1CC(C)CN(C(=O)C2CCN(S(=O)(=O)c3cccs3)CC2)C1 (centres undefined),53.6%[activator]
O=C(CSc1ccc(F)cc1)NCCc1ccc(Cl)cc1,-5.0%
CC1CC(C)CN(C(=O)COC(=O)c2cc3ccccc3cc2O)C1 (centres undefined),-10.3%
Cc1ccc(S(=O)(=O)N/N=C\c2cn(CC(N)=O)c3ccccc23)cc1C,-5.6%
CCC(C)(C)C1CCC(NC(=O)c2ccc(S(=O)(=O)N3CCOCC3)cc2)CC1 (centres undefined),-13.0%
CSc1ccccc1OCc1cc(C(=O)NCc2ccc(C)s2)no1,-3.9%
COc1ccc(C(=O)NC2CCCCCC2)cc1S(=O)(=O)N1CCCc2ccccc21,-2.7%
CCOc1ccc(NC(=O)CN(C)C(=O)c2cccnc2Sc2ccc(Cl)cc2)cc1OCC,5.5%
COC(=O)[C@H](CC(C)C)NC(=O)c1cc2c(cn1)[nH]c1ccccc12,?
CC(C)Oc1cccc(C(=O)C2CCCN(Cc3ccc(Oc4ncccn4)cc3)C2)c1 (centres undefined),6.5%
O=C1/C(=C/c2cccs2)Sc2ccccc21,?
CCn1c(=S)sc2c(=O)n(CC(=O)Nc3ccccc3C(F)(F)F)c(C)nc21,-9.9%
CC(C)CCNC(=O)CSc1nc2ccsc2c(=O)n1Cc1ccccc1Cl,2.1%
CCOC(=O)c1c(S(=O)(=O)N2CCC(C(=O)Nc3ccccc3OC)CC2)c(C)n(CC)c1C,12.5%
CCC(CC)n1c(C)cc(=O)n1C(CC)CC,-14.9%
CN(C)c1ccc(C=C2C=Cc3ccccc32)cc1,15.4%
O=S(=O)(CCc1ccccc1)c1ccccc1,-3.4%
Cn1nc(-c2ccccc2F)c2cc(C(=O)N3CCN(c4ccc(F)cc4)CC3)sc21,-2.9%
O=C(Nc1ccc(/C=C/c2nc3ccccc3o2)cc1)c1cccc(C(F)(F)F)c1,39.9%[activator]
COc1cc(CN(C)CC2CCCN(CCc3ccccc3F)C2)cc(Cl)c1OC (centres undefined),17.9%
CC1CC(C)CN(C(=O)Cn2c(=O)n(CCCCC(=O)NCc3ccco3)c(=O)c3ccccc32)C1 (centres undefined),22.4%
CC1Oc2ccccc2N(Cc2ccccc2Cl)C1=O (centres undefined),-0.7%
Cc1ccc(/C=N/c2sc(Cc3ccccc3)c(C)c2C(N)=O)o1,-3.0%
Cn1nc([N+](=O)[O-])nc1Sc1nnc(-c2ccccc2)o1,-8.7%
CC(=O)O[C@H]1C[C@@]2(C)[C@@H](C[C@@H](O)[C@H]3[C@@]4(C)CC[C@@H](O)[C@@H](C)C4CC[C@@]32C)/C1=C(\CCC=C(C)C)C(=O)O (some centres undefined),-0.4%
CCc1cc(C(=O)c2ccc(C)cc2)c(NC(=O)CCl)s1,-39.8%
COc1ccc(C2=CC(=O)CC(c3ccc(OC)cc3)C2)cc1 (centres undefined),8.0%
COc1ccc(NC(=O)CN(C)S(=O)(=O)c2cccc3nsnc23)cc1OC,-14.6%
CC(=O)N1CCc2c(sc3c2c(=O)n(CCc2ccccc2)c(=O)n3Cc2ccccc2C)C1,?
CN(C)c1ccc(-c2nnc(SCC3CCCO3)n2C)cc1 (centres undefined),0.6%
O=C(NCCO)c1ccc(Oc2ccc(C(F)(F)F)cc2[N+](=O)[O-])cc1,10.9%
COc1cc(NC(=O)c2c(F)c(F)c(F)c(F)c2F)c(OC)cc1Cl,16.0%
CCCOc1ccc(C2CC(=O)Nc3c2c(C)nn3-c2nncc(-c3cccc(OC)c3)n2)cc1OC (centres undefined),11.3%
O=C(c1cnn2c(C(F)(F)F)cc(-c3ccccc3)nc12)N1CCCCC1c1cccnc1 (centres undefined),-23.2%
CCCN1C(=O)c2ccccc2CC1(C)C(=O)NC1CCCCC1 (centres undefined),-4.8%
Cn1c(N)c(C(=O)COC(=O)c2cc(-c3ccccc3)nc3ccccc23)c(=O)n(Cc2ccccc2)c1=O,0.5%
N#Cc1cccnc1N1CCN(C(=O)c2cccc3c2C(=O)c2ccc(-c4ccc(F)cc4OCc4ccccc4)cc2S3(=O)=O)CC1,-10.7%
O=C(C1CCN(S(=O)(=O)c2c(Cl)cccc2Cl)CC1)N1CCCCCCC1,10.5%
CCn1c(COc2ccc(=O)n(-c3ccccc3)n2)nnc1SCc1ccccc1,5.4%
COc1ccc(C(=O)Nc2cc(=O)n(C)c(=O)n2C)cc1,-19.3%
O=C(NC1CCN(Cc2ccccc2)CC1)c1ccc(Cn2c(=O)c3ccccc3n(Cc3ccccc3)c2=O)cc1,12.7%
CCCCN(C(=O)Cn1nnc2ccccc21)C(C(=O)NCCOC)c1ccc(OC)cc1 (centres undefined),14.0%

# Exported as tab-separated lines: part of the list above
mol	VDR inh
COc1ccc(NC(=O)CN(C)S(=O)(=O)c2cccc3nsnc23)cc1OC	-14.6%
CC(=O)N1CCc2c(sc3c2c(=O)n(CCc2ccccc2)c(=O)n3Cc2ccccc2C)C1	?

# Next structures.
SMILES,VDR inh
Cc1cc(C)n2c(C)nnc2c1,6.4%
COc1ccc(-n2c(C)cc(/C=C3\SC(=S)N(Cc4ccco4)C3=O)c2C)cc1,-1.1%
Cc1cc(NC(=NC2CC2)c2ccccc2F)n(-c2ccccc2)n1,18.0%
CC1=C(C(N)=O)C(c2ccccc2Br)n2ncnc2N1 (centres undefined),9.2%
O=C(Nc1ccccc1)N1CCCCC1c1cccnc1 (centres undefined),7.2%
CC(C)(O)C#Cc1ccc(C(=O)N2CCCC2C(=O)O)s1 (centres undefined),16.5%
CC(/C=C/C1[C@H](C)C[C@H](O[C@@H]2O[C@H](CO)[C@@H](O)[C@H](O)[C@H]2O)CC1(C)C)O[C@H]1O[C@H](CO)[C@@H](O)[C@H](O)[C@H]1O (some centres undefined),9.1%
O=C1Cc2cc(S(=O)(=O)Nc3ccc(F)cc3Cl)ccc2N1,-6.6%
COc1ccc(-c2cc(=O)c3c(OC(C)=O)cc(OC(C)=O)cc3o2)cc1,-15.1%
O=C(CSc1ccc2c(c1)OCCO2)NCCN1C(=O)CSC1=O,-9.0%
Cc1csc(NC(=O)CSc2ccccc2F)n1,-1.6%
Cc1ccc(NC(=O)c2ccc(C)c(S(=O)(=O)N3CCOCC3)c2)nc1,6.6%
CC(=O)c1ccc(NC(=O)Nc2cccnc2)cc1,15.1%
CCOc1ccc(-c2nn(-c3ccccc3)cc2C2NC(=O)NC(C)=C2C(=O)OC(C)C)cc1C (centres undefined),-25.4%
O=C(NCCc1ccccc1)c1cc(-c2ccccc2)c(N2CCOCC2)s1,3.5%
CCOc1ccc(S(=O)(=O)N2CCN(c3c(C)cccc3C)CC2)c2ccccc12,-1.7%
COc1ccc(/C=N\NC(=O)c2ccc(F)cc2)cc1COc1cc(F)ccc1[N+](=O)[O-],6.1%
CCOc1ccc(NC(=O)CN(C)C(=O)CCNC(=O)c2ccco2)cc1OCC,7.8%
COc1ccc(CCNC(=O)C2=C(C)C(=O)OC23CCCCC3)c(OC)c1,-27.3%
COc1ccc(CNC(=O)[C@H](C)NC(=O)C2CCN(C(=O)[C@@H](N)CCSC)CC2)cc1,3.0%
COc1cccc(NC(=O)c2ccccc2NS(C)(=O)=O)c1,8.2%
C/C=C\C(=O)Nc1cccc(C2=NOC3(C2)C[C@H](C(N)=O)N(C(=O)Cc2ccc([N+](=O)[O-])cc2)C3)c1 (some centres undefined),4.8%
COc1cc(-c2[nH]nc3c2C(c2ccco2)C(C#N)=C(N)O3)cc(OC)c1OC (centres undefined),-2.8%
c1ccc(-c2nc(NCC3CCCO3)c3ccccc3n2)nc1 (centres undefined),1.6%
O=C(NC1CCCCC1)C(c1cccnc1)N(CCc1ccccc1)C(=O)Cc1cccs1 (centres undefined),?
O=C(CSCc1cccc(Cl)c1)N1CCN(Cc2ccc3c(c2)OCO3)CC1,-3.9%
O=C(CCn1nc(-c2ccccc2)c2ccccc2c1=O)N1CCN(c2ccccc2)CC1,-8.6%
Oc1c(Br)cc(/C=N/Nc2ccc(Cl)nn2)cc1Br,-24.1%
Cc1ccc(-c2csc3ncn(CC(=O)N4CCOCC4)c(=O)c23)cc1,1.1%
O=C(Oc1ccccc1Cl)c1ccc(N2CCOCC2)c([N+](=O)[O-])c1,-10.5%

# A second format for some results above:
Molecule | VDR inh
CC1CC(C)CN(C(=O)Cn2c(=O)n(CCCCC(=O)NCc3ccco3)c(=O)c3ccccc32)C1 (centres undefined) | 22.4%
CC1Oc2ccccc2N(Cc2ccccc2Cl)C1=O (centres undefined) | -0.7%
Cc1ccc(/C=N/c2sc(Cc3ccccc3)c(C)c2C(N)=O)o1 | -3.0%
Cn1nc([N+](=O)[O-])nc1Sc1nnc(-c2ccccc2)o1 | -8.7%

# (list continues)
SMILES,VDR inh
Cc1ccc2nc3sc(C(=O)N4CCCc5ccccc54)c(N)c3cc2c1,-0.9%
COc1cc2c3c(c1OC)C1(C=CC(=NO)C=C1)CC3N(C(C)=O)CC2 (centres undefined),7.4%
CC(C)[C@@H](CC(=O)N[C@@H]1CCNC[C@H]1C(=O)N[C@H](CC(=O)N[C@@H](CCC(=O)O)CC(=O)O)Cc1ccccc1)NC(=O)C[C@H](Cc1c[nH]c2ccccc12)NC(=O)[C@@H]1CCCC[C@H]1N,8.0%
COc1ccc(C2C(C#N)=C(N)Nc3onc(C(C)(C)C)c32)c(OC)c1 (centres undefined),-10.3%
O=C(NCCc1csc(-c2cccnc2)n1)c1cccc(C(F)(F)F)c1,-9.5%
O=C(CCC(=O)Nc1ccccc1Cl)NNC(=S)Nc1ccccc1C(F)(F)F,3.9%
Cc1nn(CCCC(=O)O)c(C)c1[N+](=O)[O-],-3.7%
CC1(C)CC(=O)C2=C(C1)NCN(Cc1ccccc1)C2,-1.6%
O=Cc1cn(-c2ccc(F)cc2)c2ccccc12,2.5%
CS(=O)(=O)N(CC(=O)O)c1ccc(C23CC4CC(CC(C4)C2)C3)cc1,-19.2%
COc1cc(NC(=O)COc2ccc3c(C)cc(=O)oc3c2C)cc(OC)c1OC,16.0%
CN1CCN(NC(=O)c2ccc(S(=O)(=O)N3CCCCCC3)cc2)CC1,-25.2%
Cc1cccc(C)c1OCC(=O)N1CCc2ccccc2C1,-5.9%
O=C1C2C3C=CC(C3)C2C(=O)N1CCCO (centres undefined),2.3%
Cc1noc(C)c1CSc1nnc(-c2ccccc2)n1N,?
COCc1nnc(NS(=O)(=O)c2ccc(Cl)cc2)s1,8.3%
COC(=O)COc1cccc(NC(=O)c2ccccc2)c1,-2.4%
Cc1cccn2cc(-c3ccc(NC(=O)Cc4ccccc4)cc3)nc12,19.4%
CCCCN=C(Nc1ccc(Cl)cc1)c1cccnc1,9.6%
CCCCCCSc1ccc(-c2nc3ccc(Cl)cn3c2NCc2ccccc2)cc1,-28.4%
CCOC(=O)c1c(C)c(C(=O)NCC2CCCO2)c(C)n1C (centres undefined),10.0%
Cc1nc(-c2ccc(F)cc2)sc1CCNC(=O)c1ccccc1C(F)(F)F,-6.7%
CC(C)(C)C(=O)NC(=S)Nc1ccc(S(=O)(=O)Nc2nccs2)cc1,3.9%
Cc1cc(C)cc(OCC(=O)OCC(=O)N(CC(C)C)c2c(N)n(Cc3ccccc3)c(=O)[nH]c2=O)c1,-11.4%

# By substructure: the entries above with bromine
SMILES,VDR inh
Cc1ccc(-c2cc(C(=O)N3CCN(S(=O)(=O)c4ccc(Br)s4)CC3)[nH]n2)cc1C,-1.7%
CC1=C(C(N)=O)C(c2ccccc2Br)n2ncnc2N1 (centres undefined),9.2%
Oc1c(Br)cc(/C=N/Nc2ccc(Cl)nn2)cc1Br,-24.1%

# A few values from above.
# `Cc1cc(C)cc(OCC(=O)OCC(=O)N(CC(C)C)c2c(N)n(Cc3ccccc3)c(=O)[nH]c2=O)c1` in VDR inh: -11.4%
# `COC(=O)COc1cccc(NC(=O)c2ccccc2)c1` in VDR inh: -2.4%
# `CC(C)(C)C(=O)NC(=S)Nc1ccc(S(=O)(=O)Nc2nccs2)cc1` in VDR inh: 3.9%
# `Cc1nc(-c2ccc(F)cc2)sc1CCNC(=O)c1ccccc1C(F)(F)F` in VDR inh: -6.7%
# `CCCCCCSc1ccc(-c2nc3ccc(Cl)cn3c2NCc2ccccc2)cc1` in VDR inh: -28.4%
